# Assay outcomes deposited in PubChem by Broad Institute.
# A1 apoptosis 2: compounds inhibiting A1, read as caspase activation | MEF A1-2A-BIM cells, caspase-Glo luminescence, 3 h; percent of clofoctol response, DMSO zero | caspase activation, % (no concentration beside the values) | 24,000 tested, under 10 active | AID 2465; in the data active = caspase activation above about 5.9%;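 also: wells of about 30 µL received 50 nL stock; the first replicate is given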
#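 system = A1-2A-BIM-expressing MEF cells | quantity = 2500 MEF cells/well | dosing = 50 nL compound per well, pinned | schedule = overnight cell settling, then 3 h compound exposure, 37 °C | signal = luminescence from DEVD-luciferin Caspase-Glo reagent, 1:1 in 50 mM HEPES, 1 h RT | read-out = Caspase-3/7 activation, seen as rise in luminescence signal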
# * = called active by the depositor. The list is partial; count on the stated rates, not on these rows.
SMILES,A1 apoptosis 2
C[C@@H]1CCCCO[C@@H](CN(C)C(=O)c2ccccc2)[C@@H](C)CN([C@@H](C)CO)C(=O)c2cc(NC(=O)Cc3ccccc3)ccc2O1,-0.3
C[C@@H]1CCCCO[C@@H](CN(C)Cc2ccc3c(c2)OCO3)[C@H](C)CN([C@@H](C)CO)C(=O)c2cc(NC(=O)CCC(F)(F)F)ccc2O1,0.9
C[C@H](CO)N1C[C@H](C)[C@H](CN(C)CC2CCCCC2)OCCCC[C@H](C)Oc2ccc(NC(=O)Nc3ccc(F)cc3)cc2C1=O,-0.3
Cc1noc(C)c1NC(=O)N(C)C[C@@H]1Oc2c(NC(=O)c3nc4ccccc4s3)cccc2C(=O)N([C@H](C)CO)C[C@H]1C,-0.3
COc1ccc(NC(=O)Nc2ccc3c(c2)CC(=O)N([C@@H](C)CO)C[C@H](C)[C@@H](CN(C)C(=O)Nc2c(C)noc2C)O3)cc1,-1.1
COc1ccc(S(=O)(=O)N(C)C[C@@H]2OCCCC[C@@H](C)Oc3ccc(NS(=O)(=O)c4ccc(F)cc4)cc3C(=O)N([C@@H](C)CO)C[C@@H]2C)cc1,-0.6
C[C@H]1CN([C@@H](C)CO)C(=O)Cc2cc(NS(C)(=O)=O)ccc2O[C@@H]1CN(C)C(=O)NC1CCCCC1,-1.7
C[C@@H]1CN([C@@H](C)CO)C(=O)Cc2cc(NS(=O)(=O)c3ccc(Cl)cc3)ccc2O[C@H]1CN(C)CC1CC1,-0.4
C[C@H](CO)N1C[C@H](C)[C@H](CN(C)C(=O)Nc2cccc3ccccc23)Oc2ccc(NS(=O)(=O)c3cn(C)cn3)cc2CC1=O,0.6
C=CCNC(=O)[C@@H]1[C@H]2C(=O)O[C@H](c3ccccc3)[C@H](c3ccccc3)N2[C@H](c2ccc(O)cc2)[C@@]12C(=O)N(C(=O)OCCOC)c1ccc(C#Cc3ccc(OC)cc3)cc12,-1.1
Cc1ccc(S(=O)(=O)Nc2ccc3c(c2)CC(=O)N([C@H](C)CO)C[C@H](C)[C@H](CN(C)C(=O)Nc2ccccc2)O3)cc1,0.6
COc1ccc(S(=O)(=O)N(C)C[C@H]2OCCCC[C@@H](C)Oc3ccc(NC(=O)NC(C)C)cc3C(=O)N([C@H](C)CO)C[C@H]2C)cc1,0.9
Cc1noc(C)c1NC(=O)N(C)C[C@@H]1Oc2c(NC(=O)CCCCCC(=O)Nc3ccccc3N)cccc2C(=O)N([C@@H](C)CO)C[C@H]1C,-1.0
C[C@@H]1CCCCO[C@@H](CN(C)Cc2ccc(C(=O)Nc3ccccc3N)cc2)[C@@H](C)CN([C@H](C)CO)C(=O)c2cc(NC(=O)c3ccccc3)ccc2O1,0.6
CNC[C@H]1OCCCC[C@@H](C)Oc2ccc(NC(=O)Nc3ccc(OC)cc3)cc2C(=O)N([C@H](C)CO)C[C@H]1C,0.5
C[C@@H]1CN([C@H](C)CO)C(=O)Cc2cc(NC(=O)C3CCCCC3)ccc2O[C@H]1CN(C)C(=O)Nc1ccccc1,0.1
C[C@@H]1CN([C@H](C)CO)C(=O)Cc2cc(NC(=O)Nc3ccc(F)cc3)ccc2O[C@H]1CN(C)S(C)(=O)=O,0.2
C[C@H]1CN([C@@H](C)CO)C(=O)c2cc(NC(=O)Nc3ccc(F)cc3)ccc2O[C@H]1CN(C)S(=O)(=O)c1cccs1,-0.1
C[C@H]1CN([C@@H](C)CO)C(=O)Cc2cc(NC(=O)c3ccncc3)ccc2O[C@H]1CN(C)S(=O)(=O)c1cn(C)cn1,0.7
Cc1ccc(S(=O)(=O)Nc2ccc3c(c2)C(=O)N([C@H](C)CO)C[C@@H](C)[C@@H](CN(C)S(=O)(=O)c2cn(C)cn2)OCCCC[C@H](C)O3)cc1,0.5
C[C@H](CO)N1C[C@H](C)[C@@H](CN(C)Cc2ccc(Oc3ccccc3)cc2)Oc2c(NS(=O)(=O)c3ccccc3)cccc2C1=O,0.0
CN1CCN(C(=O)C2=C[C@@H](c3ccc4c(c3)OCO4)C[C@@H](OCc3ccc(CO)cc3)O2)CC1,0.3
C[C@@H]1CN([C@H](C)CO)C(=O)c2cccc(NC(=O)Nc3ccc(F)cc3)c2O[C@H]1CN(C)C(=O)Nc1ccc(C(F)(F)F)cc1,0.2
C[C@@H]1CN([C@H](C)CO)C(=O)CCCn2cc(nn2)CO[C@@H]1CN(C)Cc1ccc(Oc2ccccc2)cc1,0.3
C[C@@H]1CCCCO[C@@H](CN(C)S(=O)(=O)c2ccc(F)cc2)[C@@H](C)CN([C@H](C)CO)C(=O)c2cc(NC(=O)Nc3cccc4ccccc34)ccc2O1,0.5
C[C@H](CO)N1C[C@H](C)[C@@H](CN(C)Cc2ccc3cccnc3c2)OCc2cn(nn2)CCCC1=O,0.9
C[C@@H]1CN([C@@H](C)CO)C(=O)c2cc(NS(=O)(=O)c3cn(C)cn3)ccc2O[C@@H]1CN(C)Cc1ccc2c(c1)OCO2,0.7
C[C@H](CO)N1C[C@H](C)[C@@H](CN(C)C)Oc2c(NC(=O)Nc3ccc(C(F)(F)F)cc3)cccc2C1=O,0.2
COc1ccc(S(=O)(=O)Nc2ccc3c(c2)CC(=O)N([C@@H](C)CO)C[C@H](C)[C@H](CN(C)Cc2ccccc2)O3)cc1,-0.5
COc1ccc(S(=O)(=O)N(C)C[C@@H]2Oc3c(NC(=O)c4ccncc4)cccc3C(=O)N([C@@H](C)CO)C[C@@H]2C)cc1,1.3

# The closing 2 records of the part before are carried over, then new ones follow:
SMILES,A1 apoptosis 2
COc1ccc(S(=O)(=O)Nc2ccc3c(c2)CC(=O)N([C@@H](C)CO)C[C@H](C)[C@H](CN(C)Cc2ccccc2)O3)cc1,-0.5
COc1ccc(S(=O)(=O)N(C)C[C@@H]2Oc3c(NC(=O)c4ccncc4)cccc3C(=O)N([C@@H](C)CO)C[C@@H]2C)cc1,1.3
C[C@H](CO)N1C[C@H](C)[C@H](CN(C)Cc2ccncc2)Oc2ccc(N(C)C)cc2C1=O,-0.9
C[C@H]1CN([C@@H](C)CO)C(=O)c2cccc(NC(=O)c3ccncc3)c2O[C@@H]1CN(C)Cc1ccc(C(=O)O)cc1,-0.2
C[C@H](CO)N1C[C@H](C)[C@H](CN(C)C(=O)Cc2ccccc2)OCCCC[C@H](C)Oc2ccc(NC(=O)c3ccccc3)cc2C1=O,2.6
C[C@@H]1CN([C@@H](C)CO)C(=O)c2cc(NC(=O)Nc3ccc(F)cc3)ccc2O[C@@H](C)CCCCO[C@H]1CN(C)C(=O)Nc1cccc2ccccc12,0.1
COc1ccc(S(=O)(=O)Nc2cccc3c2O[C@H](CN(C)Cc2ccc(C(=O)O)cc2)[C@@H](C)CN([C@@H](C)CO)C3=O)cc1,0.3
C[C@@H]1CN([C@@H](C)CO)C(=O)Cc2cc(NC(=O)C3CCCCC3)ccc2O[C@@H]1CN(C)Cc1ccccc1,-0.2
C[C@@H]1CN([C@H](C)CO)C(=O)c2cccc(NC(=O)Nc3ccc(C(F)(F)F)cc3)c2O[C@H]1CN(C)S(=O)(=O)c1cn(C)cn1,-0.3
COc1ccc(NC(=O)N(C)C[C@@H]2Oc3c(NC(=O)c4cc(C)nn4C)cccc3C(=O)N([C@H](C)CO)C[C@@H]2C)cc1,-1.3
CO[C@H]1O[C@H](CO)[C@@H](OC(=O)Nc2ccc3c(c2)OCO3)[C@H](OC(=O)Nc2ccccc2)[C@@H]1OC(=O)Nc1ccccc1,-1.7
C[C@@H]1CCCCO[C@@H](CN(C)C(=O)NC2CCCCC2)[C@@H](C)CN([C@H](C)CO)C(=O)c2cc(NC(=O)NC3CCCCC3)ccc2O1,1.2
C[C@@H]1CCCCO[C@@H](CN(C)C(=O)C2CCCCC2)[C@H](C)CN([C@H](C)CO)C(=O)c2cc(NC(=O)Nc3ccccc3)ccc2O1,-0.3
C[C@H]1CN([C@@H](C)CO)C(=O)c2cccc(NC(=O)c3nc4ccccc4s3)c2O[C@@H]1CN(C)Cc1ccc(Oc2ccccc2)cc1,0.3
C[C@H](CO)N1C[C@H](C)[C@H](CN(C)C(=O)NC2CCCCC2)Oc2ccc(NS(=O)(=O)c3ccccc3)cc2CC1=O,0.2
C[C@H]1CN([C@@H](C)CO)C(=O)Cc2cc(NC(=O)Cc3ccccc3)ccc2O[C@@H]1CN(C)S(C)(=O)=O,-0.2
C[C@@H]1CN([C@H](C)CO)C(=O)c2cccc(NC(=O)c3ccncc3)c2O[C@@H]1CN(C)Cc1ccncc1,0.3
C[C@H]1CN([C@@H](C)CO)C(=O)c2cc(NC(=O)Cc3cn(C)c4ccccc34)ccc2O[C@@H]1CN(C)Cc1ccc(Cl)c(Cl)c1,1.6
CC(C)NC(=O)N(C)C[C@H]1Oc2ccc(NC(=O)Cc3cn(C)c4ccccc34)cc2CC(=O)N([C@H](C)CO)C[C@@H]1C,-0.2
C[C@H]1CN([C@@H](C)CO)C(=O)c2cccc(NS(=O)(=O)c3cn(C)cn3)c2O[C@H]1CN(C)CC1CCCCC1,0.9
C[C@H](CO)N1C[C@H](C)[C@@H](CN(C)Cc2ccncc2)Oc2ccc(NC(=O)C3CC3)cc2C1=O,-1.9
C[C@@H]1CCCCO[C@H](CN(C)S(=O)(=O)c2cn(C)cn2)[C@H](C)CN([C@H](C)CO)C(=O)c2cc(NC(=O)CCCN(C)C)ccc2O1,-1.4
CC(C)NC(=O)N(C)C[C@H]1Oc2c(NS(=O)(=O)c3ccc(Cl)cc3)cccc2C(=O)N([C@H](C)CO)C[C@H]1C,-0.1
COc1ccc(NC(=O)N(C)C[C@@H]2Oc3ccc(NS(=O)(=O)c4ccc(Cl)cc4)cc3CC(=O)N([C@H](C)CO)C[C@H]2C)cc1,0.3
C[C@@H]1CN([C@@H](C)CO)C(=O)c2cccc(NS(=O)(=O)c3ccccc3)c2O[C@@H]1CN(C)S(=O)(=O)c1cn(C)cn1,0.0
C[C@@H]1CN([C@H](C)CO)C(=O)CCCn2cc(nn2)CO[C@H]1CN(C)C(=O)Nc1ccnc(N2CCOCC2)c1,1.3
C[C@@H]1CN([C@H](C)CO)C(=O)c2cccc(NC(=O)NC3CCCCC3)c2O[C@@H]1CN(C)S(C)(=O)=O,-0.4
C[C@H](CO)N1C[C@H](C)[C@@H](CN(C)Cc2ccncc2)OCCCC[C@H](C)Oc2ccc(NC(=O)Nc3ccc(F)cc3)cc2C1=O,-0.2
CCO[C@@H]1OC(C(=O)N2CCN(Cc3ccc4c(c3)OCO4)CC2)=C[C@H](C(C)(C)C)[C@H]1CCCO,0.2
C[C@@H]1CN([C@@H](C)CO)C(=O)c2cccc(NC(=O)c3ccncc3)c2O[C@H]1CN(C)Cc1ccc(Cl)c(Cl)c1,0.4
C[C@H]1CN([C@@H](C)CO)C(=O)c2cccc(NC(=O)C3CC3)c2O[C@H]1CN(C)Cc1ccc(C(=O)O)cc1,-0.3
C[C@H](CO)N1C[C@H](C)[C@H](CN(C)Cc2ccncc2)OCCCC[C@H](C)Oc2ccc(NC(=O)CCCN(C)C)cc2C1=O,1.3
CC(C)NC(=O)Nc1ccc2c(c1)CC(=O)N([C@H](C)CO)C[C@H](C)[C@@H](CN(C)C(=O)NC1CCCCC1)O2,-0.1
C[C@@H]1CN([C@@H](C)CO)C(=O)c2cc(NC(=O)Nc3ccc(C(F)(F)F)cc3)ccc2O[C@@H]1CN(C)Cc1ccc(C(=O)Nc2ccccc2N)cc1,0.1
C[C@@H]1CN([C@@H](C)CO)C(=O)c2cc(NS(=O)(=O)c3ccc(F)cc3)ccc2O[C@@H](C)CCCCO[C@@H]1CN(C)S(=O)(=O)c1cn(C)cn1,-0.6
C[C@H]1CN([C@@H](C)CO)C(=O)Cc2cc(NC(=O)CCN3CCOCC3)ccc2O[C@H]1CN(C)S(=O)(=O)c1ccc(Cl)cc1,-0.7
C[C@@H]1CCCCO[C@@H](CN(C)C(=O)C2CCCCC2)[C@H](C)CN([C@H](C)CO)C(=O)c2cc(NC(=O)Nc3ccc4c(c3)OCO4)ccc2O1,0.4
O=C1N(CCS(=O)(=O)c2ccccc2)Cc2ccccc2[C@@H]2OC(c3ccc(OCCCO)cc3)=N[C@]12CCS(=O)(=O)c1ccccc1,0.2
C[C@@H]1CN([C@@H](C)CO)C(=O)c2cccc(NS(=O)(=O)c3ccc(Cl)cc3)c2O[C@@H]1CN(C)CC1CC1,1.0
O=C(N/N=C/c1ccccc1C(=O)O)c1ccccn1,-12.7
C[C@@H]1CN([C@H](C)CO)C(=O)c2cccc(NC(=O)Nc3ccc(C(F)(F)F)cc3)c2O[C@@H]1CN(C)S(=O)(=O)c1ccc(Cl)cc1,0.4
C[C@H](CO)N1C[C@H](C)[C@@H](CN(C)C(=O)C2CCCCC2)OCCCC[C@H](C)Oc2ccc(NC(=O)Nc3ccccc3)cc2C1=O,-1.5

# Grouped by structure, the entries above with a Cl atom (eight)
SMILES,A1 apoptosis 2
C[C@@H]1CN([C@@H](C)CO)C(=O)Cc2cc(NS(=O)(=O)c3ccc(Cl)cc3)ccc2O[C@H]1CN(C)CC1CC1,-0.4
C[C@H]1CN([C@@H](C)CO)C(=O)c2cc(NC(=O)Cc3cn(C)c4ccccc34)ccc2O[C@@H]1CN(C)Cc1ccc(Cl)c(Cl)c1,1.6
CC(C)NC(=O)N(C)C[C@H]1Oc2c(NS(=O)(=O)c3ccc(Cl)cc3)cccc2C(=O)N([C@H](C)CO)C[C@H]1C,-0.1
COc1ccc(NC(=O)N(C)C[C@@H]2Oc3ccc(NS(=O)(=O)c4ccc(Cl)cc4)cc3CC(=O)N([C@H](C)CO)C[C@H]2C)cc1,0.3
C[C@@H]1CN([C@@H](C)CO)C(=O)c2cccc(NC(=O)c3ccncc3)c2O[C@H]1CN(C)Cc1ccc(Cl)c(Cl)c1,0.4
C[C@H]1CN([C@@H](C)CO)C(=O)Cc2cc(NC(=O)CCN3CCOCC3)ccc2O[C@H]1CN(C)S(=O)(=O)c1ccc(Cl)cc1,-0.7
C[C@@H]1CN([C@@H](C)CO)C(=O)c2cccc(NS(=O)(=O)c3ccc(Cl)cc3)c2O[C@@H]1CN(C)CC1CC1,1.0
C[C@@H]1CN([C@H](C)CO)C(=O)c2cccc(NC(=O)Nc3ccc(C(F)(F)F)cc3)c2O[C@@H]1CN(C)S(=O)(=O)c1ccc(Cl)cc1,0.4
